D2 potentiator: Beta-Arrestin HTS for Positive Allosteric Modulators of the Human D2 Dopamine Receptor: Potentiators. DiscoveRx D2 beta-arrestin cells, luminescence, 90 min; 100% = 57 uM dopamine signal. potentiation, % (no concentration beside the values). hit rate 0.23% among 360,000. AID 624464, 2012; active = potentiation of 50% or more; inconclusive = 30% to 50%; inactive = 30% or less;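 also: compound concentration not given in the record; tested on top of an EC20 dose of dopamine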
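PathHunter D2 cells, attached overnight at 37 deg C, received compound in DMSO plus dopamine at EC20 (50 nM final) for 90 min at 37 deg C. Beta-arrestin recruitment was read as luminescence after 1 h with detection reagent at ambient temperature.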
Six1-Eya2 blk: qHTS Assay for Inhibitors of the Six1/Eya2 Interaction; activity change, % (test concentration not listed); Homeobox protein SIX1 (Homo sapiens) + Protein phosphatase EYA2 (Homo sapiens), …; AID 651725, 2012; AlphaScreen GST-Six1/His-Eya2 binding, biochemical; active compounds read low; control for the full effect not named in the record; hit rate 0.56% among 360,000; in the data active = activity change below about -65%; inconclusive = about -30% to -65%; inactive = above about -30%; also: % is scaled to controls: 0 for no effect and ±100 for the full control effect
Target sequence (O00167 whole entry, looked up): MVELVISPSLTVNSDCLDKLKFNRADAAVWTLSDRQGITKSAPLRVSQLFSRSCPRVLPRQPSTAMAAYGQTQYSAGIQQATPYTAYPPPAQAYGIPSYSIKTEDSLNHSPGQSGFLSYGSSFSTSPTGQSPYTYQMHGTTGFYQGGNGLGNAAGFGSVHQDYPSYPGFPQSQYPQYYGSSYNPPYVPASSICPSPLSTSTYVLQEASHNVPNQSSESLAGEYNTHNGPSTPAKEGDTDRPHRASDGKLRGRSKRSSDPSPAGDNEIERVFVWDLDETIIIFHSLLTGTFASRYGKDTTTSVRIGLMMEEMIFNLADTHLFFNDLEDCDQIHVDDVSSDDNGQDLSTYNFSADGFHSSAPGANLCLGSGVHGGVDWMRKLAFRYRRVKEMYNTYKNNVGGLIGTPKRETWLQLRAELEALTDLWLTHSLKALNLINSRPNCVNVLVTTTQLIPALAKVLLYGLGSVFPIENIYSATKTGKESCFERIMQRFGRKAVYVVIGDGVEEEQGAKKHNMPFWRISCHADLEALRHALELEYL
Target sequence (Q15475 whole entry, looked up): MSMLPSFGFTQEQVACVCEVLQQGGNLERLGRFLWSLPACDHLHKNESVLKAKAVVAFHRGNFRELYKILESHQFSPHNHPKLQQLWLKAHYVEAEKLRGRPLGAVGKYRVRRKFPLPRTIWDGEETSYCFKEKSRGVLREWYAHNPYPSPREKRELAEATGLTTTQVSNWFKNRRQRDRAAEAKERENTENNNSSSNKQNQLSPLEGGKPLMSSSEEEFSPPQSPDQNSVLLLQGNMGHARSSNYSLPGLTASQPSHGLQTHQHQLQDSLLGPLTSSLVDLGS
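Compounds are tested against tagged Six1 and Eya2 proteins bridged by glutathione donor and nickel acceptor beads; after a one-hour incubation at 37 °C without light, AlphaScreen emission is recorded.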
TRPML1 agonist: qHTS for Agonists of the Human Mucolipin Transient Receptor Potential 1 (TRPML1) | Mucolipin-1 (Homo sapiens), Q9GZU1 | TRPML1-expressing cells, Ca2+ dye fluorescence, FDSS; host cell line not named in the record; reference of the full effect not given here | hit rate 0.12% among 410,000 | activation, % (test concentration not listed); in the data active = activation above about 50%; inconclusive = about 30% to 50%; inactive = below about 30%; also: 0% is about no effect; the text of the record puts the active cut at 80%
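In this qHTS format, compounds were pin-transferred onto Ca8-dye-loaded TRPML1-DL cells induced with Tet overnight, and intracellular Ca2+ fluorescence was recorded kinetically for 110 s after a 10 s baseline. A subsequent 4uM final 54-4 (EC80) addition followed by a second 110 s read served as the antagonist phase.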
D2 ag: Beta-Arrestin HTS for Positive Allosteric Modulators of the Human D2 Dopamine Receptor: Agonists; hit rate 0.084% among 360,000; D(2) dopamine receptor (Homo sapiens), P14416; activation, % (concentration not given with the values); DiscoveRx PathHunter D2 beta-arrestin, luminescence, 90 min; 100% = 57 uM dopamine signal; in the data active = activation above about 40%; inconclusive = about 15% to 40%; inactive = below about 15%; also: compound concentration not given in the record; the text of the record calls up to 30% inactive
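Agonist mode: compounds alone added to overnight-plated D2 PathHunter cells for 90 min at 37 C, with 57 uM final dopamine (EC100) defining full response. Beta-arrestin recruitment detected by chemiluminescent reagent, read after 1 h at ambient temperature.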
TRPML1 inh: qHTS for Inhibitors of the Human Mucolipin Transient Receptor Potential 1 (TRPML1); hit rate 0.02% among 390,000; AID 624415, 2012; Mucolipin-1 (Homo sapiens), Q9GZU1; activity change, negative = inhibition, % (no concentration beside the values); TRPML1-inducible cells, Ca2+ dye fluorescence, FDSS; active compounds read low; inhibition of EC80 agonist-evoked calcium signal; in the data active means activity change below about -50%; inconclusive means about -30% to -50%; inactive means above about -30%;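 also: stimulus is agonist 54-4 at its EC80 concentration; % is scaled to controls: 0 for no effect and ±100 for the full control effect; compound concentration not given in the record; the text of the record puts the active cut at -80%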
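TRPML1-DL cells, Tet-induced overnight (~16 h, 37 °C) at 1,500 cells/well, were loaded with Ca8 no-wash dye plus quencher for 45-90 min at room temperature. Compounds were pinned during FDSS kinetic reading; agonist 54-4 at EC80 (4 uM final) then added.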
PINK1 expr mod: A Quantitative High throughput Screen to Identify Chemical Modulators of PINK1 Expression; PINK1 immunofluorescence, high-content cytometry, 24 h; Potency, µM (doses to about 76.6 µM), inactives show at the highest dose activation (PINK1 increase), usual class: activators; hit rate 0.2% among 410,000; AID 624263, 2012; active = well fitted activation curve with a large enough effect; inconclusive = small, poorly fitted or top-dose-only effect; inactive = flat fitted curve, though single readings scatter; cell line not stated here;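 also: potency is read from the fitted curve at half-maximal effect; % of control where 0% means no effect; nearly all actives have a fitted effect of over 65% in size; a mitochondrial uncoupler was the plate control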
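Readout is PINK1 immunofluorescence, quantified alongside mitochondrial, cell and nuclear markers by laser-scanning microplate cytometry. Cells from a stable line were exposed to compound titrations (5 concentrations) for 24 hours, with CCCP controls.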
* marks the source's active call; other numbers are inactive results; u = inconclusive; x = not tested or not shown; & = joins results of further samples; [ ] = another dose, or the depositor's remark. Hits appear at their usual frequency (roughly 1% active in at least one column).

SMILES | D2 potentiator | Six1-Eya2 blk | TRPML1 agonist | D2 ag | TRPML1 inh | PINK1 expr mod
CCN1CCN(C(=O)CN(CC)S(=O)(=O)c2ccc(Cl)cc2)CC1 | -17 | 1 | -0.1 | 0.4 | -2 | 12%[38.3 µM]
CCC(=O)Nc1sc(Cc2ccccc2)c(C)c1C(N)=O | -10 | 0 | 0.1 | -2.3 | 2 | -0.5%
COc1ccc(C(NC(=O)CNC(C)=O)C(=O)Nc2ccc3c(c2)OCCO3)cc1 (configuration not stated) | -7 | -10 | 0.6 | -6.9 | -12 | -2.0%
Cc1ccc(S(=O)(=O)N2CCCCC2C(=O)N2CCN(Cc3ccccc3)CC2)cc1 (configuration not stated) | -26 | -6 | 1.0 | -1.0 | 0 | -19%[38.3 µM]
O=S(=O)(CCSc1nc2ccccc2s1)c1nc2ccccc2s1 | -2 | 3 | 1.3 | -4.0 | 23 | -2.9%
Cn1nc(-c2ccc(Cl)cc2)c2cc(C(=O)NCc3ccco3)sc21 | 0 | u | 2.4 | 0.6 | 13 | 1.7%
Cc1cccc2c1cnn2C(=O)Nc1ccccc1Br | -1 | 6 | 0.9 | -1.7 | 27 | 0.4%
COC(=O)c1ccc(Cl)c(NC(=O)CN2CCC(C)CC2)c1 | -3 | 3 | -0.6 | 0.3 | -19 | -1.6%[38.3 µM]
Cc1ccc(C(=O)NCC2CCCO2)cc1[N+](=O)[O-] (configuration not stated) | -7 | 8 | -0.3 | -1.5 | -4 | -1.4%
Cc1ccc(S(=O)(=O)N(C)CC(=O)O/N=C(\N)c2cccnc2)cc1 | 10 | 0 | 0.4 | 0.0 | -13 | 4.3%
Cc1ccc(CN2CCN(Cc3ccccc3-c3ccco3)CC2CCO)o1 (configuration not stated) | -32 | -8 | 0.5 | -3.2 | 39 | 0.8%
CCc1cc(C(=O)Cc2cnn(-c3ccccc3)c2)c(O)cc1O | 2 | -1 | -1.0 | 0.2 | 25 | 0.1%
Cc1ccc(S(=O)(=O)NCc2cccnc2)cc1 | -1 | 3 | -0.7 | 3.0 | -9 | 0.0%
O=C(NCCn1cc(SCc2ccc(C(F)(F)F)cc2)c2ccccc21)c1cccs1 | x | x | 1.7 | x | -14 | u
Cc1ccc(Sc2ccc(N3CCC(C(=O)Nc4cc(C)cc(C)c4)CC3)nn2)cc1 | x | x | 0.5 | x | -12 | -0.2%
CCOC(=O)N1CCN(S(=O)(=O)c2ccc3c(c2)C(C)C(=O)N3)CC1 (configuration not stated) | -1 | 4 | 2.2 | 6.1 | -13 | 0.2%
CCC(Sc1ccccc1C(=O)O)C(=O)O (configuration not stated) | -1 | 15 | 0.1 | -2.3 | -19 | -0.9%
Cc1cc(=O)oc2cc(OCC(=O)N3CCC(C(N)=O)CC3)ccc12 | -25 | 1 | x | -5.5 | x | -0.2%
CC(=O)Nc1ccc(S(=O)(=O)Oc2ccc(C(=S)N3CCC(O)CC3)cc2)cc1 | -26 | -12 | -0.2 | 3.8 | -5 | 2.7%
COc1ccc(CCNC(=O)Nc2ccc3c(c2)OCO3)cc1OC | 3 | 0 | 4.9 | -0.3 | 8 | -1.3%
CCN(CC)S(=O)(=O)c1ccc(NC2c3ccccc3C(=O)N2Cc2ccco2)cc1 (configuration not stated) | -4 | -1 | 1.1 | -2.2 | 16 | -0.2%
COc1ccc2nc(NC(=O)CS(=O)(=O)c3ccc(C)cc3)sc2c1 | 3 | -3 | -0.1 | 7.3 | 13 | -1.2%
Cn1nnnc1SCC(=O)NNC(=O)c1ccc(F)cc1 | -23 | 0 | -0.2 | -6.7 | 21 | 11%
Cc1cc(-c2ccccc2)nc2cc(C(=O)NCc3ccco3)nn12 | -4 | -3 | 2.4 | -2.4 | 34 | 1.4%
CCC(CC)NC(=O)Cc1ccc(S(=O)(=O)N2CCOCC2)s1 | 0 | -4 | 0.2 | -1.2 | -1 | 0.4%
COCCCNC(=O)CSc1nc2ccc(N3CCOCC3)cc2c(=O)n1CCc1ccccc1 | 1 | 3 | -0.7 | 1.6 | -3 | 3.0%[38.3 µM]
Cc1ccc(OCC(=O)OCC(=O)c2c(N)n(C)c(=O)n(C)c2=O)cc1C | 3 | -7 | 3.5 | -1.0 | 1 | -0.7%
Cc1cc(SCc2ccc(Cl)cc2)nc(=O)[nH]1 | -7 | -3 | 0.3 | -0.2 | 20 | -0.9%
OCCNc1nc(NCCC2=CCCCC2)nc(N2CCOCC2)n1 | -4 | 6 | 0.8 | -1.4 | 11 | 5.6%
COc1cccc(CN(C)C(c2ccccc2)c2ccccc2)c1OC | -4 | 7 | 1.5 | -2.0 | 2 | 17%
CCOC(=O)N1CCN(Cc2nc(-c3cccc(Cl)c3)no2)CC1 | -1 | -1 | -0.7 | 5.7 | 3 | 1.3%
CSc1ccc(Cl)c(C(=O)OCC(=O)N2CCN(C(=O)c3ccco3)CC2)c1 | 2 | -2 | 1.0 | 4.0 | -1 | 1.1%
CC(C)(O)C#Cc1ccc(CNC[C@H]2O[C@@H](n3cnc4c(=O)[nH]c(N)nc43)[C@H](O)[C@@H]2O)s1 | -1 | -3 | 0.1 | -5.2 | 1 | 1.3%
CC(=O)O[C@@H]1[C@@H](OC(C)=O)[C@H](n2ccc3cc([N+](=O)[O-])ccc32)OC[C@@H]1OC(C)=O | -5 | 10 | 0.6 | 0.8 | -12 | 7.1%
CN(Cc1ccc(F)cc1)C(=O)CNC(=O)c1ccc2c(c1)OCO2 | -10 | 5 | -0.5 | -7.3 | -7 | 0.1%
CCC(C)C(NC(=O)c1ccccc1NC(=O)c1ccco1)C(=O)NC1CCCCC1 (configuration not stated) | -17 | 2 | 1.8 | 0.2 | 0 | -1.7%
CCCCOc1ccc(/C=N/NC(=S)Nc2cccc(C)c2C)cc1 | -18 | -6 | 0.8 | -4.5 | -8 | 24%[38.3 µM]
O=C(C1CCN(S(=O)(=O)c2ccc(Cl)cc2)CC1)N1CCCC1 | -6 | 9 | -0.5 | -2.8 | -2 | 0.5%
COCCCN1C(=O)C(CC(=O)NC2CCCC2)CC(C(=O)N(C(C)C)C(C)C)=C1C (configuration not stated) | -6 | 6 | -0.7 | -5.1 | 2 | 3.3%
CC(C)(C)c1cc(NC(=O)Nc2ccc(Cl)cc2Cl)no1 | -9 | -1 | 0.4 | 11 | 8 | u

The final 3 records of the part before are carried over, then new ones follow.
SMILES | D2 potentiator | Six1-Eya2 blk | TRPML1 agonist | D2 ag | TRPML1 inh | PINK1 expr mod
O=C(C1CCN(S(=O)(=O)c2ccc(Cl)cc2)CC1)N1CCCC1 | -6 | 9 | -0.5 | -2.8 | -2 | 0.5%
COCCCN1C(=O)C(CC(=O)NC2CCCC2)CC(C(=O)N(C(C)C)C(C)C)=C1C (configuration not stated) | -6 | 6 | -0.7 | -5.1 | 2 | 3.3%
CC(C)(C)c1cc(NC(=O)Nc2ccc(Cl)cc2Cl)no1 | -9 | -1 | 0.4 | 11 | 8 | u
COc1ccc(C2C3=C(CC(C)(C)CC3=O)Nc3nc(C)nn32)cc1OC (configuration not stated) | 0 | -5 | 0.4 | -10.0 | 8 | -1.8%
O=C1C[C@@H](c2ccc(O[C@@H]3O[C@H](CO)[C@@H](O)[C@H](O)[C@H]3O)cc2)Oc2cc(O)ccc21 | -10 | 9 | 0.1 | -4.1 | 11 | -0.1%
COc1ccc(-c2cc(NC(=O)c3cncn3-c3ccccc3)ccc2OC)cc1 | 9 | -13 | 0.1 | -0.6 | 18 | -2.2%
CCc1ccc(NC(=O)c2ccc3c(c2)nnn3CC)cc1 | x | x | 0.9 | x | -11 | 1.9%
COc1ccc(N2CCN(C(=O)CCCC3=NS(=O)(=O)c4ccccc4N3)CC2)cc1 | 5 | -2 | -0.2 | -0.6 | 1 | 2.0%
CCOC(=O)c1c(C)[nH]c(C)c1S(=O)(=O)N1CCC(C(=O)Nc2cc(C)ccn2)CC1 | x | x | -1.2 | x | -16 | 1.3%
COc1cccc(/C=N/NC(=S)Nc2cccnc2)c1 | -7 | 1 | -0.4 | 3.3 | 0 | 4.6%
COc1ccc(CCC(=O)O)c(C(CC(=O)O)C(=O)O)c1OS(=O)(=O)c1ccc(C)cc1 (configuration not stated) | -3 | -1 | -0.5 | -2.7 | -2 | 0.7%
N#C/C(=C\Nc1ccccc1SC(F)(F)F)c1nc(-c2ccc(F)cc2)cs1 | -2 | 0 | 0.3 | -2.3 | 8 | 5.2%
CCc1[nH]nc(C(=O)N2CCCC(Nc3cccc(F)c3)C2)c1C (configuration not stated) | 75* | 9 | 0.0 | 3.3 | 5 | -0.7%
O=C(CC1CCCCC1)Nc1nc2ccccc2s1 | -4 | 10 | 0.2 | -6.8 | 2 | 11%
COC(=O)c1cccc(NC(=O)CSc2nc(C)cc(=O)[nH]2)c1 | -7 | -5 | 1.1 | -2.0 | 4 | 1.0%
Cc1ccc[n+](CC(=O)Nc2nc3ccccc3s2)c1 | -14 | 6 | 0.3 | -10 | -1 | 0.3%
CCN(C[C@H]1N[C@@](CC)(C(=O)OC)[C@H]2C(=O)N(Cc3ccccc3)C(=O)[C@@H]12)C(=O)Nc1ccc(Cl)cc1 | -7 | 7 | 3.2 | -3.0 | 4 | 4.3%
CC(C)N1C(=O)/C(=C\c2nc3ccccc3c(=O)[nH]2)c2ccccc21 | -19 | -6 | -0.3 | -3.7 | 7 | -0.3%
Cc1cc(-c2ccc(C)c(S(=O)(=O)NCC3CCN(Cc4ccccc4F)CC3)c2)on1 | -30 | -7 | -0.2&-0.3 | -4.0 | 13&-2 | 0.3%&1.0%
COC(=O)/C(=N/Nc1ccccc1C)N1CCCc2ccccc21 | -12 | -1 | 3.5 | -0.2 | 18 | 2.7%
COc1ccccc1-n1c(=O)c2c3c(sc2n2c(SC)nnc12)CCC3 | 10 | -1 | 3.0 | -1.1 | 38 | -1.0%
Clc1ccc(Oc2cnns2)c(Cl)c1 | -7 | 22 | 1.8 | -2.6 | -4 | -0.1%
Cc1ccc(SC(C)C(=O)Nc2c(C)n(C)n(-c3ccccc3)c2=O)cc1 (configuration not stated) | -1 | 2 | 0.4 | 4.2 | -11 | -1.1%
COc1ccc(NC(=O)N(C)C[C@H]2OCc3cnnn3CCCC(=O)N([C@H](C)CO)C[C@@H]2C)cc1 | -5 | 3 | -0.3 | -4.9 | -13 | -0.3%
COc1cccc(/C=N/Nc2nc3ccccc3[nH]2)c1OC | -16 | -2 | 0.7 | 5.1 | 22 | 6.3%
